Compound activity: PubChem, Fisher Drug Discovery Resource Center
NPYLR7 ag – mosquito NPYLR7 agonism. activation, % at 10 µM. hit rate 0.15% among 270,000. HEK293T NPYLR7/Galpha15, GCaMP6s calcium fluorescence; in the data active means activation above about 40%;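 further: 0% = vehicle and 100% = reference agonist at the receptor; some compounds past the cut are filed as inactive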
NPYLR7 ag max-min – second read-out of NPYLR7 ag, no call of its own (marks repeat the call); activation, %; measured here: Max-Min RFU normalised activation; some inactives read as strong as hits;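 span of the calcium signal over five minutes; 0% = vehicle and 100% = native peptide agonist; compound fluorescence can raise it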
An asterisk follows results filed as active; & = joins results of further samples. This is a subset; count on the stated rates, not on these rows.

A first look (6 entries):
Cc1nnc(NC(=O)c2cccc(C(=O)O)c2)s1
  NPYLR7 ag: -2 | NPYLR7 ag max-min: -10
CCCCN(Cc1ccccc1F)C(=O)CC1=CCNCC1
  NPYLR7 ag: 15 | NPYLR7 ag max-min: 10
Cc1ccc2nc(N(CCCn3ccnc3)C(=O)/C=C/c3cccs3)sc2c1
  NPYLR7 ag: -13 | NPYLR7 ag max-min: -18
CC1(C(=O)NS(=O)(=O)c2ccc(Cl)s2)CCN1C(=O)c1ccccc1CCc1ccccc1 (centres undefined)
  NPYLR7 ag: 9 | NPYLR7 ag max-min: 6
O=C(NC(=S)NN1CCCCC1)c1ccco1
  NPYLR7 ag: 3 | NPYLR7 ag max-min: 3
O=C(CN1CCCOC1=O)Nc1ccc(F)cc1-c1ccc(F)cc1
  NPYLR7 ag: 7 | NPYLR7 ag max-min: 4

The whole of this part, from the first entry:
Cc1nnc(NC(=O)c2cccc(C(=O)O)c2)s1
  NPYLR7 ag: -2 | NPYLR7 ag max-min: -10
CCCCN(Cc1ccccc1F)C(=O)CC1=CCNCC1
  NPYLR7 ag: 15 | NPYLR7 ag max-min: 10
Cc1ccc2nc(N(CCCn3ccnc3)C(=O)/C=C/c3cccs3)sc2c1
  NPYLR7 ag: -13 | NPYLR7 ag max-min: -18
CC1(C(=O)NS(=O)(=O)c2ccc(Cl)s2)CCN1C(=O)c1ccccc1CCc1ccccc1 (centres undefined)
  NPYLR7 ag: 9 | NPYLR7 ag max-min: 6
O=C(NC(=S)NN1CCCCC1)c1ccco1
  NPYLR7 ag: 3 | NPYLR7 ag max-min: 3
O=C(CN1CCCOC1=O)Nc1ccc(F)cc1-c1ccc(F)cc1
  NPYLR7 ag: 7 | NPYLR7 ag max-min: 4
COc1ccc(N2C(=O)CSC2=NS(=O)(=O)c2ccc(F)cc2)cc1
  NPYLR7 ag: 5 | NPYLR7 ag max-min: 3
COC(=O)c1ccc(-c2nc(CN(CCO)Cc3cccs3)c(C)o2)cc1
  NPYLR7 ag: 1 | NPYLR7 ag max-min: -1
Cc1cc(C)c(CNC(=O)N(C)C(C)CS(C)(=O)=O)c(C)c1 (centres undefined)
  NPYLR7 ag: 5 | NPYLR7 ag max-min: 2
CCn1c(SCC(=O)Nc2nc3ccccc3s2)nnc1-c1cccn(C)c1=O
  NPYLR7 ag: 1 | NPYLR7 ag max-min: 0

By substructure: the entries above with a thiophene ring, fused or not
Cc1ccc2nc(N(CCCn3ccnc3)C(=O)/C=C/c3cccs3)sc2c1
  NPYLR7 ag: -13 | NPYLR7 ag max-min: -18
CC1(C(=O)NS(=O)(=O)c2ccc(Cl)s2)CCN1C(=O)c1ccccc1CCc1ccccc1 (centres undefined)
  NPYLR7 ag: 9 | NPYLR7 ag max-min: 6
COC(=O)c1ccc(-c2nc(CN(CCO)Cc3cccs3)c(C)o2)cc1
  NPYLR7 ag: 1 | NPYLR7 ag max-min: -1

(further entries)
COc1ccc(NC(=O)N(CC(=O)N(CCc2ccc(OC)c(OC)c2)Cc2ccc(C)o2)CC(C)C)cc1
  NPYLR7 ag: -3 | NPYLR7 ag max-min: -1
COc1cccc(NC2C=CS(=O)(=O)C2)c1 (centres undefined)
  NPYLR7 ag: 5&6 | NPYLR7 ag max-min: 14&2
CC1CC(NCCS(=O)(=O)c2ccccc2)CN1Cc1ccccc1 (centres undefined)
  NPYLR7 ag: 5 | NPYLR7 ag max-min: 3
O=C([C@H]1C[C@@H]2C=C[C@H]1C2)N1CCc2[nH]nc(-c3ccc4c(c3)OCO4)c2C1
  NPYLR7 ag: 0 | NPYLR7 ag max-min: -3
c1ccc(C2CCC(=NNc3nc4ccccc4[nH]3)CC2)cc1 (centres undefined)
  NPYLR7 ag: 1 | NPYLR7 ag max-min: 2
O=C1C[C@H]2CC[C@@H](CN1)N2C(=O)c1cnc(CN2CCCC2)s1
  NPYLR7 ag: 2 | NPYLR7 ag max-min: 0
Cc1ccc(S(=O)(=O)NCc2ncoc2-c2ccccc2)c(F)c1
  NPYLR7 ag: 3 | NPYLR7 ag max-min: 2
Cc1cc(C)n(-c2nc3nonc3nc2Nc2cccc(C)c2C)n1
  NPYLR7 ag: 0 | NPYLR7 ag max-min: 1
CNC(=O)[C@H]1O[C@@H](n2cnc3c(N)ncnc32)C(O)[C@H]1O (some centres undefined)
  NPYLR7 ag: 1 | NPYLR7 ag max-min: 6
COc1cccc(CN2CCCC3(CCN(C(=O)Cn4ccc(C)n4)C3)C2)c1OC (centres undefined)
  NPYLR7 ag: -3 | NPYLR7 ag max-min: -9

Part of the list above, with tabs.
canonical_smiles	NPYLR7 ag	NPYLR7 ag max-min
CNC(=O)[C@H]1O[C@@H](n2cnc3c(N)ncnc32)C(O)[C@H]1O (some centres undefined)	1	6
CC1CC(NCCS(=O)(=O)c2ccccc2)CN1Cc1ccccc1 (centres undefined)	5	3
COc1ccc(NC(=O)N(CC(=O)N(CCc2ccc(OC)c(OC)c2)Cc2ccc(C)o2)CC(C)C)cc1	-3	-1
O=C1C[C@H]2CC[C@@H](CN1)N2C(=O)c1cnc(CN2CCCC2)s1	2	0
COc1cccc(CN2CCCC3(CCN(C(=O)Cn4ccc(C)n4)C3)C2)c1OC (centres undefined)	-3	-9

Following part
CCN(Cc1cnn(C)c1)C(=O)c1cccc(NCc2ccc(C)cc2)c1
  NPYLR7 ag: -8 | NPYLR7 ag max-min: -17
CCCC(O)(CCC)c1ccc(CN(CCN2CCOCC2)Cc2cccc(OC)c2OC)o1
  NPYLR7 ag: -4 | NPYLR7 ag max-min: -3
Cc1ccccc1C(=O)N1CCN(C(C(=O)NCc2ccc(F)cc2)C2CCCC2)CC1 (centres undefined)
  NPYLR7 ag: 8 | NPYLR7 ag max-min: 11
Cc1nc2sccn2c(=O)c1CCN1CCC(=C(c2ccc(F)cc2)c2ccc(F)cc2)CC1
  NPYLR7 ag: 6 | NPYLR7 ag max-min: -23
O=C(c1ccc(CSCc2ccc(Cl)c(Cl)c2)cc1)N1C2CCC1CC(Oc1cccc(C(F)(F)F)c1)C2 (centres undefined)
  NPYLR7 ag: 7 | NPYLR7 ag max-min: 4
O=C(CCc1ccccc1)NNS(=O)(=O)c1ccccc1[N+](=O)[O-]
  NPYLR7 ag: 2 | NPYLR7 ag max-min: 4
CCC(=O)Nc1sc2c(c1C#N)CCC2
  NPYLR7 ag: 3 | NPYLR7 ag max-min: -2
CCc1ccccc1NC(=O)CCCn1nc(-c2ccc(C)cc2)ccc1=O
  NPYLR7 ag: -9 | NPYLR7 ag max-min: -13
c1coc(-c2nnc(NC3=NCCC3)o2)c1
  NPYLR7 ag: 0 | NPYLR7 ag max-min: -4
CN(C)C(=O)CCN1CCCN(CCC(=O)N(C)C)c2ccccc21
  NPYLR7 ag: 5 | NPYLR7 ag max-min: 2

In another format: two of the compounds above.
SMILES	NPYLR7 ag	NPYLR7 ag max-min
Cc1ccccc1C(=O)N1CCN(C(C(=O)NCc2ccc(F)cc2)C2CCCC2)CC1 (centres undefined)	8	11
Cc1nc2sccn2c(=O)c1CCN1CCC(=C(c2ccc(F)cc2)c2ccc(F)cc2)CC1	6	-23

Later entries
CCc1nc2ccc(C(=O)NC(C)(C)C)cn2c1N(CCC(C)C)CCN(C)C
  NPYLR7 ag: -7 | NPYLR7 ag max-min: -12
Cc1cccc(N(CC(=O)N2CCNC2=O)Cc2ccccc2)c1
  NPYLR7 ag: -20 | NPYLR7 ag max-min: -24
Cc1nc2scc(-c3cccs3)c2c(=O)n1-n1cccc1
  NPYLR7 ag: -3 | NPYLR7 ag max-min: -5
CSc1ccccc1C(=O)C1CCCN(C(=O)Nc2ccc(C)c(C)c2)C1 (centres undefined)
  NPYLR7 ag: 15 | NPYLR7 ag max-min: 2
CSc1nnc(-c2ccccc2)n1/N=C\c1cc(O)ccc1Cl
  NPYLR7 ag: 0 | NPYLR7 ag max-min: -1
Cc1cc(=O)oc2cc(CN3CCC(N4CCC(O)CC4)CC3)ccc12
  NPYLR7 ag: 1 | NPYLR7 ag max-min: 1
COc1cc(C(=O)n2nc(C)c(Sc3ccccc3[N+](=O)[O-])c2C)cc(OC)c1OC
  NPYLR7 ag: 16 | NPYLR7 ag max-min: 24
COc1cc(NC(=O)C(=O)N2CCN(C)CC2)ccc1NC(C)=O
  NPYLR7 ag: -1 | NPYLR7 ag max-min: -4
Cc1ccc2sc(NCCCN(C)C)nc2c1C
  NPYLR7 ag: 2 | NPYLR7 ag max-min: -1
Cc1cc(Cl)cc2sc(N(CCN3CCOCC3)C(=O)c3ccc(C#N)cc3)nc12
  NPYLR7 ag: 5 | NPYLR7 ag max-min: 4

Cn1c(=O)c2[nH]c(-c3ccc(S(=O)(=O)O)cc3)nc2n(C)c1=O
  NPYLR7 ag: 5 | NPYLR7 ag max-min: -13
CC1=C[C@H]2C[C@@H]1C1C(=O)N(CCCn3cccn3)C(=O)C12 (some centres undefined)
  NPYLR7 ag: -7 | NPYLR7 ag max-min: -13
COc1ccc(CCOC(=O)C2CCCCN2C(=O)CCCCc2ccccc2)cc1OC (centres undefined)
  NPYLR7 ag: -6 | NPYLR7 ag max-min: -11
O=C1C2CC=CCC2C(=O)N1c1cc(Cl)ccc1O (centres undefined)
  NPYLR7 ag: -12 | NPYLR7 ag max-min: -14
CC1C2CCCN2CCN1Cc1c2ccccc2cc2ccccc12 (centres undefined)
  NPYLR7 ag: -16 | NPYLR7 ag max-min: -21
O=C(NCCc1ccc(C(F)(F)F)cc1)c1ccc(=O)[nH]c1
  NPYLR7 ag: 0 | NPYLR7 ag max-min: 2
Cc1nnc(C(C)N2CCN(CCN3C(C)CCC3C)CC2)o1 (centres undefined)
  NPYLR7 ag: 4 | NPYLR7 ag max-min: 1
COc1cc(-c2nn(CN3CCCCC3)c(=S)o2)cc(OC)c1OC
  NPYLR7 ag: -1 | NPYLR7 ag max-min: -2
O=S1(=O)CC=C(CNCc2ccccc2)C1
  NPYLR7 ag: -14 | NPYLR7 ag max-min: -15
Cc1nc2nc(C)c(C(=O)O)cn2n1
  NPYLR7 ag: -8 | NPYLR7 ag max-min: -13

O=C(Cc1ccc(F)cc1)NNC(=O)c1cccn(Cc2ccc(F)cc2)c1=O
  NPYLR7 ag: -12 | NPYLR7 ag max-min: -18
O=C(NCC1CCN(c2ccccc2)C1)c1ccccc1Cl (centres undefined)
  NPYLR7 ag: 0 | NPYLR7 ag max-min: -1
O=C(CNC(=O)c1cccc(Cl)c1)N=Nc1c(O)[nH]c2ccc([N+](=O)[O-])cc12
  NPYLR7 ag: -9 | NPYLR7 ag max-min: -13
CC1=C(C(=O)OCCOC(C)C)C(c2cccc(O)c2)C2=C(CCCC2=O)N1 (centres undefined)
  NPYLR7 ag: -6 | NPYLR7 ag max-min: -14
CC(NC(=O)Cn1nnnc1CN1CCCCCC1)c1cnn(C)c1 (centres undefined)
  NPYLR7 ag: 11&2 | NPYLR7 ag max-min: 5&-2
Nc1nc(NCc2ccccc2)nc(NCc2ccco2)c1[N+](=O)[O-]
  NPYLR7 ag: 0 | NPYLR7 ag max-min: -1
O=C(/C=C/c1ccc(OC(F)(F)F)cc1)N1CC(=O)N2CCc3ccc(F)cc3C2C1 (centres undefined)
  NPYLR7 ag: 31 | NPYLR7 ag max-min: 16
CC(C(=O)Nc1ccc(S(=O)(=O)N2CCCC2)cc1)N(C)Cc1ccc(Cl)s1 (centres undefined)
  NPYLR7 ag: -3 | NPYLR7 ag max-min: -7
CC(C)c1cc(C(=O)N(Cc2ccncc2)C[C@@H]2CCC(=O)N2)n(C)n1
  NPYLR7 ag: -2 | NPYLR7 ag max-min: -12
CCN(CCC#N)S(=O)(=O)c1ccc(OC)c(C)c1
  NPYLR7 ag: 0 | NPYLR7 ag max-min: 2

COc1ccccc1-c1cc(NC=O)c2ncc(-c3cccc(C(C)=O)c3)n2c1
  NPYLR7 ag: -1 | NPYLR7 ag max-min: -6
Cc1cccc(NC(=O)CSc2nc(=O)n(CCCN3CCOCC3)c3c2CCC3)c1
  NPYLR7 ag: 0 | NPYLR7 ag max-min: -7
CCn1c(CC2CCNCC2)nn(Cc2cc(-c3ccccn3)no2)c1=O
  NPYLR7 ag: 2 | NPYLR7 ag max-min: 2
CCCCOc1ccc(S(=O)(=O)Nc2ccccc2C(=O)NCc2ccc(OC)cc2)cc1
  NPYLR7 ag: 21 | NPYLR7 ag max-min: 8
O=C(COc1ccc(Cl)cc1)NC1CCN(c2ccccc2C(=O)NCCc2cccs2)CC1
  NPYLR7 ag: 23 | NPYLR7 ag max-min: 20
